Assay outcomes as filed in PubChem.
VDR inh = vitamin D3 receptor (human) inhibition; 400,000 tested, 0.93% active; VDR-SRC2-3 peptide fluorescence polarization, 2 h; Potency, µM, for the others: max response, negative = inhibition, actives largely listed as inhibitors; active = well fitted inhibition curve with a large enough effect; inconclusive = small, poorly fitted or top-dose-only effect, or another doubt; inactive = no such curve, though single readings can be large or run the other way; also: series mostly up to about 120 µM
Target sequence (P11473 whole entry, looked up): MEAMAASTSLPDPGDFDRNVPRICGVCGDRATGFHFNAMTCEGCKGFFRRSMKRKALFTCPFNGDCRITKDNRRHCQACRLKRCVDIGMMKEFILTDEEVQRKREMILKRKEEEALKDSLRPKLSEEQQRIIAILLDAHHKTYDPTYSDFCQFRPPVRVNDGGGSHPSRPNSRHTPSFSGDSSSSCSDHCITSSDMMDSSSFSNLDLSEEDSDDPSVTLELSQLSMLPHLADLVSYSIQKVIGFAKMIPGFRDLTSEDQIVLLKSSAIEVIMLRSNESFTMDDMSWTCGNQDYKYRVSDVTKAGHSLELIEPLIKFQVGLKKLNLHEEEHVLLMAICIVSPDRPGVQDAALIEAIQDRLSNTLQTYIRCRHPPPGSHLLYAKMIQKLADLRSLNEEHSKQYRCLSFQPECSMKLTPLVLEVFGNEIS
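FP read-out; VDR + SRC2-3 coactivator peptide; 23 nl compound by pintool; 2 h RT incubation; reagents held at 4 deg C, protected from light.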
An asterisk follows results filed as active; ? = inconclusive. % is scaled to controls: 0 for no effect and ±100 for the full control effect; potency is read from the fitted curve at half-maximal effect. Not all compounds are listed; count on the stated rates, not on these rows.

nr | Compound | VDR inh
1 | O=C1[C@H]2[C@@H](c3ccc(F)cc3)N3C(=O)N(c4cccc(F)c4)C(=O)[C@@]3(Cc3ccc(Cl)cc3)[C@H]2C(=O)N1C1CCCCC1 | -6%
2 | CC(C)(C)c1ccc(S(=O)(=O)N2CCN(Cc3cc4c(cc3O)OCO4)CC2)cc1 | -13%
3 | O=C(O)CCc1nc2cc(C(F)(F)F)ccc2n(Cc2ccccc2)c1=O | -9%
4 | Cc1nc(N2CCN(S(=O)(=O)c3ccc(F)cc3)CC2)c2c(-c3cccs3)csc2n1 | -6%
5 | Cc1cccc(CS(=O)(=O)c2nnc([C@H](Cc3ccccc3)NC(=O)OC(C)(C)C)o2)c1 | ?
6 | C=CCn1cnc2c(sc3nc(C)cc(C)c32)c1=O | -12%
7 | COCCn1c(SCc2nc3scc(-c4ccc(Cl)cc4)c3c(=O)[nH]2)nnc1-c1cccc(C)c1 | 18%
8 | CCNc1nc(NCC)nc(NS(=O)(=O)c2ccc(N)cc2)n1 | -3%
9 | O=C(N/N=C/c1ccsc1)c1cc2ccccc2o1 | 4%
10 | NC(=S)N=Nc1c(O)n(CCCl)c2ccccc12 | 1%
11 | O=C(N/N=C/c1ccccc1Cl)C1CC1 | -7%
12 | Cc1ccc(-c2cnc(-c3ccccc3C(=O)O)o2)cc1 | -3%
13 | Cc1cc(C)cc(N(C(=O)c2csnn2)C(C(=O)NC2CCCCC2)c2ccncc2)c1 (stereo not given) | 0%
14 | CN1CCN(C(=O)C2CCN(S(=O)(=O)c3ccc(F)cc3)CC2)CC1 | -4%
15 | COCCNC(=O)NC(=O)COC(=O)C1(c2ccc(Cl)cc2)CC1 | -7%
16 | CCN(CC)Cc1c(O)ccc2c([N+](=O)[O-])c(C)n(-c3ccc(OC)cc3)c12 | 12%
17 | CCSC1=N/C(=C\c2ccccc2)C(=O)N1 | 6%
18 | CCOC(=O)c1ccc(NC(=O)CSc2nnnn2C2CCCCC2)cc1 | 3%
19 | COc1ccc(NC(C)=O)cc1S(=O)(=O)NCCc1ccccn1 | 5%
20 | COc1ccc(OC)c(S(=O)(=O)Nc2c(C)n(C)n(-c3ccccc3)c2=O)c1 | -17%
21 | Cc1csc2ncc(C(=O)Nc3cccc(C(F)(F)F)c3)c(=O)n12 | -4%
22 | CCCCn1c(N)c(N(CCOC)C(=O)c2oc3ccc(Br)cc3c2C)c(=O)[nH]c1=O | 3%
23 | Cc1ccc(NC2CCCN(C(=O)CSc3ccncc3)C2)cc1C (stereo not given) | -10%
24 | O=C(CN1C(=O)NC2(CCCC2)C1=O)OCc1cc(=O)n2cc(Br)ccc2n1 | -22%
25 | O=c1ccc2cc(S(=O)(=O)N3CCN(c4ccc(Cl)cc4)CC3)ccc2o1 | -11%
26 | CCN(CC(=O)Nc1ccccc1OC)CC(=O)Nc1sccc1C#N | 9%
27 | O=C(NCc1cccnc1)C(=O)Nc1nc(C23CC4CC(CC(C4)C2)C3)cs1 | -9%
28 | CC(C)(C)NC(=O)C(c1ccc(O)cc1)N(C(=O)Cn1nnc(-c2ccc(F)cc2)n1)c1ccccc1F (stereo not given) | 3%
29 | OC1CCCN(c2c3c(nc4cc(-c5cccc(F)c5)nn24)CCCC3)C1 (stereo not given) | -4%
30 | COCC1CCCN(C(=O)c2ccc(OC3CCN(Cc4ccccn4)CC3)cc2)C1 (stereo not given) | -7%
31 | CCOC(=O)c1cc(S(=O)(=O)N2CCN(c3cccc(C)c3)C(C)C2)[nH]n1 (stereo not given) | 12%
32 | CCN(CC)S(=O)(=O)c1ccc(C(=O)N=c2sc3cccc(OC)c3n2C)cc1 | 11%
33 | CC1C(c2ccccc2)=NNc2nc3c(c(=O)n(C)c(=O)n3C)n21 (stereo not given) | -7%
34 | CCCCNC(=O)CSc1nnc(NC(C)=O)s1 | 3%
35 | O=C(CSC1=Nc2ccccc2C2=NC(Cc3ccccc3)C(=O)N12)Nc1ccccc1F (stereo not given) | 1%
36 | COc1ccc(N(C)C(=O)c2ccc3nc(-c4ccccc4)c(-c4ccccc4)nc3c2)cc1 | -4%
37 | CCC1CCCCN1C(=O)CCCOc1ccccc1 (stereo not given) | ?
38 | COc1cc(Cl)ccc1OCc1cc(C(=O)N[C@H]2CCCCNC2=O)no1 | 10%
39 | C=CCSc1[nH]c(=O)cc(C)c1C(N)=O | -1%
40 | CC(=O)NCc1ccc(C(=O)CN2C(=O)NC3(CCCCC3C)C2=O)s1 (stereo not given) | 1%
41 | Cc1ccc(C(=O)N2CCN(S(=O)(=O)c3ccccc3[N+](=O)[O-])CC2)o1 | -4%
42 | CC(C)Oc1ccc(CN2CCC(n3nccc3NC(=O)C3CC3)CC2)cc1 | 1%
43 | O=C(OCC(=O)c1ccc(Cl)s1)c1cncc(Br)c1 | -12%
44 | COc1ccc(Cl)cc1NC(=O)Nc1ccccc1C(N)=O | 3%
45 | CC(=O)Nc1ccc(OCC(O)CN2CCCCC2C)cc1 (stereo not given) | 2%
46 | COc1ccc(-c2nnc(SCC(=O)N/N=C/c3ccccc3C(=O)O)n2-c2ccccc2)cc1 | -5%
47 | CC(C)(C)OC(=O)NC(Cc1ccccc1)C(=O)NC1COC2CC(n3ccc(=O)[nH]c3=O)OC12 (stereo not given) | -13%
48 | Cc1nn(Cc2ccc([N+](=O)[O-])cc2)c(=O)n1-c1cccc(F)c1 | -12%
49 | COc1ccc(CC(=O)NCc2ccccc2)cc1OC | 5%
50 | CN1CCN(c2ncc3ncc(=O)n(C4CC4)c3n2)CC1 | -17%
51 | O=c1[nH]nc(-c2n[nH]c(=O)o2)o1 | 8%
52 | CCOC(=O)N1CCN(C(=O)CN(c2ccccc2OC)S(=O)(=O)c2ccc(C)cc2)CC1 | 17%
53 | COc1cc(C2C(C#N)=C(N)OC3=C2C(=O)CC(C)(C)C3)ccc1OC(=O)N1CCOCC1 (stereo not given) | 6%
54 | Cc1ccc(NCc2nnc(SC(C)C(=O)N/N=C/c3ccc(C)o3)n2-c2ccccc2)cc1 (stereo not given) | -11%
55 | O=c1c2c(nc3n1CCCCC3)sc1c(O)c(Br)ccc12 | -3%
56 | CCOc1ccc(CCNC(=O)c2cn(CC)c3ccc(S(=O)(=O)N4CCc5ccccc5C4)cc3c2=O)cc1OCC | -10%
57 | COc1ccc(O)c(/C=C(\C#N)C(=O)Nc2cccnc2)c1 | -14%
58 | CC(C)(C)OC(=O)N1CCC(c2c(C(=O)NCCN3CCOCC3)cnn2-c2ccc(F)cc2)CC1 | -5%
59 | Oc1c(Br)cc(Cl)cc1C=Nc1ccccc1Br | -19%
60 | Cc1cccc(C)c1OCCCN1CCCC1 | 6%

An excerpt of these results, field by field:
43. O=C(OCC(=O)c1ccc(Cl)s1)c1cncc(Br)c1
- VDR inh = -12%

44. COc1ccc(Cl)cc1NC(=O)Nc1ccccc1C(N)=O
- VDR inh = 3%

Further structures:
nr | Compound | VDR inh
61 | COC(=O)C1Sc2[nH]c(=O)sc2C(c2ccc(Cl)cc2)C1C(=O)OC (stereo not given) | -7%
62 | Cc1cccc(CN2C[C@]34CC[C@@H](C[C@@H]3S2(=O)=O)O4)c1 | -13%
63 | CCOc1ccc(Nc2nc(N3CCCCC3)nc(N3CCCCC3)n2)cc1 | -10%
64 | CC1CC(=O)N(CC(=O)N2CCCC2)c2ccccc2S1 (stereo not given) | 0%
65 | COc1cc(C(C)=O)ccc1OC(=O)C(C)N1C(=O)c2ccccc2C1=O (stereo not given) | 4%
66 | COc1nc(Nc2nc3ccccc3c(=O)[nH]2)nc2ccc(C)cc12 | -2%
67 | O=C(c1cnn2c(C(F)F)cc(C3CC3)nc12)N1CCOCC1 | 12%
68 | CC(C)c1ccc(S(=O)(=O)N2CCC(C(=O)NCC3(N(C)C)CCCCC3)CC2)cc1 | 2%
69 | CCN1CNC(=S)N(c2ccccc2C)C1 | -18%
70 | CCCC(c1nnnn1CC1CCCO1)N1CCN(c2nc3ccccc3s2)CC1 (stereo not given) | -12%
71 | O=C(NCCc1c[nH]c2ccccc12)C(F)(F)F | -5%
72 | O=C(O)CN1C(=O)/C(=C\C(Br)=C\c2ccccc2)SC1=S | 35µM*
73 | CN1CCN(c2ncc3nc(-c4cc(F)cc(F)c4)c(=O)n(C)c3n2)CC1 | -9%
74 | O=C(NCc1cccs1)C12CC3CC(CC(C3)C1)C2 | 17%
75 | Nn1c(SCc2ccc(F)cc2)nnc1-c1ccncc1 | 1%

Six compounds already listed, arranged by their value in VDR inh, lowest first:
no.	SMILES	VDR inh
69	CCN1CNC(=S)N(c2ccccc2C)C1	-18%
63	CCOc1ccc(Nc2nc(N3CCCCC3)nc(N3CCCCC3)n2)cc1	-10%
61	COC(=O)C1Sc2[nH]c(=O)sc2C(c2ccc(Cl)cc2)C1C(=O)OC (stereo not given)	-7%
71	O=C(NCCc1c[nH]c2ccccc12)C(F)(F)F	-5%
68	CC(C)c1ccc(S(=O)(=O)N2CCC(C(=O)NCC3(N(C)C)CCCCC3)CC2)cc1	2%
74	O=C(NCc1cccs1)C12CC3CC(CC(C3)C1)C2	17%

New compounds follow
nr | Compound | VDR inh
76 | O=C1N[C@@H](Cc2c[nH]c3ccccc23)COC(=O)[C@@H](Cc2ccc(F)cc2)C/C=C\C[C@H]1CC(=O)N(CCO)Cc1ccccc1 | -5%
77 | CCOc1cc(/C=C/C(=O)c2ccc(C)cc2)ccc1OCC(=O)N(C)C | ?
78 | COC(=O)C1=C(C)NC(=O)C1(Nc1ccc(Cl)cn1)C(F)(F)F (stereo not given) | 4%
79 | COC(=O)C1=C(C)NC(C)=C(C(=O)OC)C1C(=O)OCC(=O)c1ccc(F)cc1 | -12%
80 | Cc1ccc(-n2cc(CNCCN3CCOC3=O)c(-c3ccc(F)cc3)n2)cc1 | -4%
81 | N#Cc1cccc(NC(=O)N2CC3(CCN(C(=O)c4cccc(F)c4)CC3)C2)c1 | 0%
82 | COC(=O)C1(Cc2ccc(O)c(CC3OC3(C)C)c2)OC(=O)C(O)=C1c1ccc(O)cc1 (stereo not given) | 14%
83 | CC(=O)N=Nc1[nH]c(N)c2ccccc12 | -4%
84 | CCN(CC)S(=O)(=O)c1ccc2c(c1)nc(CN(C)C(=O)Nc1ccc(C)c(F)c1)n2C | 4%
85 | O=C(COc1ccc(S(=O)(=O)NCc2ccccc2)cc1)NCc1cccnc1 | -2%
86 | O=c1[nH]c(=O)c2nnc(N/N=C/c3ccccc3F)nc2[nH]1 | 25%
87 | CC1CCN(CCC(=O)Nc2ccc3c(c2)CCC3)CC1 | -5%
88 | O=C(CCCN1C(=O)c2cccnc2C1=O)Nc1ccc(Br)cc1 | -9%
89 | O=C(c1ccc(Cl)c(S(=O)(=O)N2CCCCCC2)c1)N1CCN(c2ccccc2O)CC1 | -8%
90 | CSc1ccccc1NC(=O)c1c(C)noc1C | 12%
91 | CSCCC(NC(=O)c1ccccc1Cl)C(=O)OCC(=O)N1CCCC1=O (stereo not given) | -3%
92 | COc1ccc2c(c1)c1c(c(=O)n(-c3ccccc3C)c(=O)n1Cc1c(F)cccc1Cl)n2C | 11%
93 | COC(=O)CC1Oc2ccc(F)cc2-n2cc(-c3ccc(Cl)cc3)nc21 (stereo not given) | -13%
94 | COc1ccc(C(=O)Nc2ccc(CN3CCOCC3)cc2)cc1Br | 3%
95 | O=Cc1cn(-c2ccccc2)nc1-c1cccnc1 | 8%
96 | O=C(CCC(NC(=O)OCc1ccccc1)C(=O)OCC(=O)N1CCCCC1)OCC(=O)N1CCCCC1 (stereo not given) | -3%
97 | COc1ccc(CN2CCCC(C(=O)c3ccc(Cl)cc3)C2)cc1Cn1cncn1 (stereo not given) | 0%
98 | Cc1cc(C)c(OCC(=O)OCC(=O)N2CCc3ccccc3C2)c(C)c1 | -5%
99 | CCOC(=O)C1=C(C)NC(=S)N(C(C)=O)C1c1ccc(Cl)cc1 (stereo not given) | -22%
100 | NS(=O)(=O)c1ccc(-c2ccc(C=NC3CCS(=O)(=O)C3)o2)cc1 (stereo not given) | -1%
101 | O=C(Nc1ccccc1Cl)N1CCN(c2ccccn2)CC1 | 13%
102 | Cc1cc(C)n2nc(SCc3ccccc3)nc2n1 | 3%
103 | Cc1cccc(-n2ncc(C(=O)NCc3ccc4c(c3)OCO4)c2C2CCN(C(=O)OC(C)(C)C)CC2)c1 | 16%
104 | CCc1nc(N=Nc2c(O)[nH]c3ccccc23)c2c3c(sc2n1)CCC3 | -7%
105 | O=C(CCC(=O)N1CCN(c2ccc(F)cc2)CC1)c1ccc(F)cc1 | 21%
106 | CCOC(=O)C1CCN(C(=O)c2ccccc2)C(CC)C1=O (stereo not given) | -24%
107 | CCN(CC(=O)Nc1cc(Cl)ccc1C)C(=O)CSCc1ccc(C)cc1 | -21%
108 | CC(C)(C)n1nnnc1C(c1cccc(C(F)(F)F)c1)N1CCC(O)CC1 (stereo not given) | 6%
109 | C[C@H](CCC(=O)NCC(=O)O)C1CC[C@H]2[C@H]3C(C[C@H](O)[C@]12C)[C@@]1(C)CC[C@@H](O)C[C@H]1C[C@H]3O (stereo not given in full) | -13%
110 | CCCCCCCc1cc2c(cn1)C(=O)C(C)(OC(C)=O)C(O)=C2Cl (stereo not given) | ?
111 | Cc1cc(N2CCN(C(=O)c3cccs3)CC2)c(F)cc1[N+](=O)[O-] | -25%
112 | Cc1ccc(CNC(=O)CN(C2CCCCC2)S(C)(=O)=O)cc1 | 1%
113 | CN1c2ccccc2C(C)(C)C12C=Nc1c(cc(N3CCOCC3)c3ccccc13)O2 (stereo not given) | -21%
114 | CC1=CC(C)(C(Cl)Cl)C(C)=CC1=O (stereo not given) | 13%
115 | O=c1cc(O)c2sc(Nc3ccc(F)c(Cl)c3)nc2[nH]1 | ?
116 | CC(C)c1ccc(N(CC(=O)NCC2CCCO2)C(=O)CCC(=O)Nc2nccs2)cc1 (stereo not given) | 25%
117 | Cc1ccc2nc(SC(C(=O)Nc3ccc(F)cc3)c3ccccc3)[nH]c2c1 (stereo not given) | -5%
118 | Cc1ccc([N+](=O)[O-])c(OCCCN2CCC(Cc3ccccc3)CC2)c1 | -1%
